# High-throughput results from PubChem BioAssay.
# H5N1 CPE: antiviral screen in MDCK cells, H5N1 avian flu; inhibition, % at 50 µM; cytopathic effect, luminescence, 72 h; active compounds read high; no value below 0 was filed and about half of the inactive calls have no number; reference of the scale not given here; AID 740; hit rate 0.07% among 96,000; in the data active means inhibition above about 25%
# Numbers without * were called inactive; i = inactive. Only part of the results is shown; the hit share may differ from the screen's.
molecule | H5N1 CPE
CC(=O)c1ccc(NC(=O)C(Cc2ccccc2)NC(=O)c2ccco2)cc1 (stereo unspecified) | i
COc1cc(C(C)=O)ccc1OCC(O)CN1CCN(S(=O)(=O)c2ccccc2)CC1 (stereo unspecified) | 1.0
CCOC(=O)C1=C(C)NC(SCC(=O)O)=NC1c1ccccc1 (stereo unspecified) | i
Cc1c(Nc2ncnc3nc[nH]c23)c(=O)n(-c2ccccc2)n1C | 0.2
CN1CCN(Cc2ccc(OC(F)(F)F)cc2)CC1 | 0.1
CN(C(=O)COC(=O)c1ccc2c(c1)NC(=O)CS2)C1CCS(=O)(=O)C1 (stereo unspecified) | i
O=C1Nc2ccccc2/C1=N/c1sc2c(c1C(=O)NCCc1ccccc1)CCCC2 | i
CCOc1ccc(Nc2nc(Cc3nnc(SCC(N)=O)o3)cs2)cc1 | 0.2
CSc1nnc(-c2ccc(F)cc2)o1 | 24.5
CC(C)(C#N)Nc1ccccc1 | 0.2
Fc1ccc2c(c1)nnn2C1CCN(Cc2nnnn2C2CCCCC2)CC1 | i
CC(=O)NC(O)C(=O)c1ccccc1 (stereo unspecified) | i
COC(=O)c1ccc(OCCOc2ccc(C(=O)OC)cc2)cc1 | 0.6
CN(C(=O)CSc1nc(-c2ccc(F)cc2)cs1)C1CCS(=O)(=O)C1 (stereo unspecified) | i
CCOC(=O)C1=C(c2ccccc2)N=c2s/c(=C\c3ccco3)c(=O)n2C1c1cccs1 (stereo unspecified) | 0.1
CC(=O)OCCCN1C(=O)c2ccc(Br)cc2C1=O | 0.3
CCOc1ccccc1NC(=O)CSc1nnc(CNC(=O)c2ccco2)o1 | 0.2
CN(CC(=O)N1CCc2ccccc21)S(=O)(=O)c1ccc(Cl)cc1 | i
CCOc1ccc(NC(N)=O)cc1OCC | i
COc1ccc(OC)c(CN2CCN(C(=O)c3cccc4ccccc34)CC2)c1 | i
O=C(OCCN1CCN(c2ncc(C(F)(F)F)cc2Cl)CC1)c1ccc(Cl)cc1 | 1.0
O=C(CCc1ccccc1)Nc1ccncc1 | 0.1
Cc1ccc(Cn2nnnc2CN2CCC(n3nnc4cc(C(F)(F)F)ccc43)CC2)cc1 | i
CCOc1ccccc1-c1nn2c(Cc3ccccc3)nnc2s1 | 1.9
COc1cc2c(cc1OC)C(C(=O)Nc1ccccn1)C(c1cccnc1)N(C)C2=O (stereo unspecified) | 1.0
Cc1cccc(NS(=O)(=O)c2cccc3cccnc23)n1 | 23.7
CN1CCN(C(=O)c2cn(-c3ccccc3)nc2-c2cccnc2)CC1 | 1.1
COc1ccc(CCNC2CC(=O)N(CCc3ccc(OC)c(OC)c3)C2=O)cc1 (stereo unspecified) | 0.8
CC(C)Cc1nc2n[nH]c(N)c2c2c1COC(C)(C)C2 | 0.3
CC(C)NC(=O)Cn1c(SCC(=O)N2CCCCCC2)nc2ccccc21 | i
CCOC(=O)c1sc2nc(CSc3nc4ccccc4n3CC)[nH]c(=O)c2c1C | i
CCSc1nnc(NC(=O)C2(C)Cc3ccccc3C(=O)O2)s1 (stereo unspecified) | 0.4
Cc1ccc2cc(S(=O)(=O)NCCCC(=O)O)ccc2c1 | 0.8
O=S(=O)(c1ccccc1)N1CN2CCN(C2)C1 | i
COCC(=O)N(C)C1(c2nnnn2CCOC(=O)Nc2cccc3ccccc23)CCCC1 | i
Cc1ccc(-c2nn(-c3ccccc3)cc2C2CC(c3cccs3)=NN2C(=O)CCCC(=O)O)cc1 (stereo unspecified) | 0.1
COc1ccc(Cc2nnc(NS(=O)(=O)Cc3ccccc3)s2)cc1 | 0.3
CCCCn1c(O)c(C(CC)=NCc2ccc(F)cc2)c(=O)[nH]c1=O | 1.0
Cc1c(NC(=O)c2cc(-c3ccc4c(c3)OCO4)on2)c(=O)n(-c2ccccc2)n1C | 0.6
O=C(c1ccco1)N1CCN(S(=O)(=O)c2ccc(S(=O)(=O)NC3CCCCC3)cc2)CC1 | 1.3
Nc1c(NC2CCCCC2)c2ccccc2oc1=O | 0.8
O=C(Nc1ccc(Cl)cc1)C1CCN(C(=O)NC2CCCCC2)CC1 | i
COc1ccc2c(c1)[n+](=O)c(C(C)=O)c(C)n2[O-] | i
COc1cccc(NC(=O)N2CCC(N3CCCCC3)CC2)c1 | i
COc1ccc(C2C(C#N)=C(N)Oc3cc(N)ccc32)cc1OC (stereo unspecified) | i
O=C(CN1C(=O)C2(OCCCO2)c2ccccc21)NCCc1ccccc1 | 0.0
O=C(Cn1c(CSc2ccccc2)nc2ccccc21)Nc1ccccc1 | i
CCOC(=O)c1ccc2c(c1)C(=O)N(C1CCCCC1)C2=O | i
CC1(C(=O)Nc2nnc(SCc3ccccc3)s2)Cc2ccccc2C(=O)O1 (stereo unspecified) | 0.2
O=C(O)C1CCN(C(=O)c2ccccc2C(=O)N2CCC(C(=O)O)CC2)CC1 | i
Cc1ccsc1C1NC(=O)c2ccccc2N1 (stereo unspecified) | i
CC(=O)NC12CC3CC(C1)CC(C(=O)OCC(=O)NC(=O)c1cccn1C)(C3)C2 | i
O=C(C1CCCN(c2nnc(-n3cccc3)s2)C1)N1CCC2(CC1)OCCO2 (stereo unspecified) | 1.6
COCc1[nH]nc2c1C1(C(=O)N(C)c3ccccc31)C(C#N)=C(N)O2 (stereo unspecified) | 0.5
O=C(c1ccc2nc(N3CCOCC3)sc2c1)N1CCCC1 | i
COc1ccc(/C=N/n2c(SC)nnc2-c2ccccc2)cc1C | 1.8
Cc1ccc(C(=O)CSc2n[nH]c(-c3ccco3)n2)cc1C | i
Cc1ccc(-c2noc(CN3CCC(C(N)=O)CC3)n2)cc1 | 0.4
C=CCn1c(SCc2c(C)noc2C)nc2sc3c(c2c1=O)CCC(C)C3 (stereo unspecified) | 3.0
CCOC(=O)c1cc(NC(=O)c2ccc(OC)cc2)c(=O)oc1-c1ccccc1 | 0.1

# Additional compounds follow.
molecule | H5N1 CPE
NC(=O)CNC(=O)[C@@H]1CC2(CC(c3ccccc3)=NO2)CN1C(=O)c1ccc(Br)cc1 (stereo partly specified) | i
Cc1ccc(NC(=O)c2oc3c(c2C)C(=O)CC(C)(C)C3)cc1 | 0.2
COc1ccc(S(=O)(=O)NCc2ccccn2)cc1Cl | 0.8
COc1cccc(C(=O)Nc2ccc(N(C)C)cc2)c1OC | 1.0
CCCCSc1nn[nH]n1 | 2.6
CCC(=O)NC(=S)Nc1cccc(Cl)c1N1CCCCC1 | 10.0
COc1ccc2oc(=O)c(C(=O)N3CCN(c4ccccc4C)CC3)cc2c1 | 0.7
O=C(NCC(=O)N(CC1CCCO1)C(C(=O)NC1CCCC1)c1cccnc1)c1ccco1 (stereo unspecified) | 0.1
CC(C)Cn1c2c(c(O)c(C(=O)Nc3ccc(F)cc3)c1=O)CCCC2 | 1.6
COC(=O)CSc1nnc(CNC(=O)c2ccc(OC)cc2OC)n1C | 0.5
Cc1ccc(CNc2ncnc3c2cnn3-c2ccccc2)cc1 | 0.6
C=CCn1c(SCC(=O)/C(C#N)=C(\C)N)nnc1C1CCCCC1 | i
C=CCn1c(SCCOC)nc2c1c(=O)[nH]c(=O)n2C | 2.6
Brc1ccc(CN2CCSCC2)cc1 | i
COc1ccc(CCNc2oc(COc3ccccc3Cl)nc2C#N)cc1OC | 0.5
CCc1ccc(NC(=O)c2cc(-c3ccco3)on2)cc1 | i
CC(=O)CSc1nnc(Cc2ccc([N+](=O)[O-])cc2)o1 | 4.2
Cn1nnnc1SCc1nnc(-c2ccccc2Br)o1 | 0.8
CCC(=NCC1CCCO1)c1c(O)n(-c2ccc(Cl)cc2)c(=O)[nH]c1=O (stereo unspecified) | 0.9
C=CCNc1cnn(CC(C)=O)c(=O)c1Br | i

# Later entries:
mol	H5N1 CPE
Cc1[nH]c2ccccc2c1C1(O)C(=O)N(Cc2ccc3c(c2)OCO3)c2ccccc21 (stereo unspecified)	i
CC1CCN(CCc2nc3cc(NS(=O)(=O)c4ccccc4)ccc3n2C)CC1	0.3
Cc1cc(Nc2cccc([N+](=O)[O-])c2)n2c(nc3ccccc32)c1C#N	5.6
CC(=O)N1CCN(S(=O)(=O)c2cccc(C(=O)Nc3nc4c(s3)CCCC4)c2)CC1	0.8
N#CCCCSC1=C(C#N)C(c2ccccc2Cl)CC(=O)N1 (stereo unspecified)	i
Cc1onc(-c2ccccc2Cl)c1C(=O)Nc1nnc(-c2ccc(F)cc2)s1	0.7
CCN(CC)S(=O)(=O)c1cccc(-c2nnc(SCC(=O)NC3CCCC3)n2N)c1	0.6
COc1cc(NC(=O)c2cccc(Cl)c2)c(OC)cc1NC(=O)CN1CCOCC1	2.2
CCOc1ccc(NC(=O)c2cccc(-n3cnnn3)c2)cc1	i
Cn1c(=O)oc2cc(S(=O)(=O)N3CCC(C(=O)N4CC=C(c5ccccc5)CC4)CC3)ccc21	2.1
CN1C2C=C3C(C#N)=C(N)C(C#N)(C#N)[C@@H](c4ccc(Cl)cc4)[C@@H]3C1CC2 (stereo partly specified)	0.7
O=C(NCc1ccc2c(c1)OCO2)c1cc(S(=O)(=O)N2CCCCC2)ccc1F	1.4
Brc1ccc(-c2nnc(-c3cccc(Br)c3)o2)cc1	i
CC(C)c1ccc(-c2nn[nH]n2)cc1	i
CN(c1nc(-c2ccccc2)cs1)C1CCS(=O)(=O)C1 (stereo unspecified)	i
FC(F)(F)c1nc2ccccc2n2c(-c3c(Cl)cccc3Cl)nnc12	i
O=C(O)CCCCCNC(=O)Nc1ccc2c(c1)OCCO2	0.1
Oc1c(CN2CCN(c3ccccn3)CC2)cc(Cl)c2cccnc12	i
COc1ccc(-n2c(=S)[nH]c3cc(C(=O)NCc4ccco4)ccc3c2=O)c(OC)c1	0.8
O=C(NC1CCCCC1)C(c1ccc(F)cc1)N(C(=O)c1cccs1)c1ccc2c(c1)OCO2 (stereo unspecified)	3.1
Cc1cc(=O)oc2cc(OCc3ccc(S(=O)(=O)N4CCOCC4)cc3)ccc12	2.0
COc1cccc(C2=NOC(C(=O)NCCCn3ccnc3)C2)c1 (stereo unspecified)	0.8
O=C(O)CCNS(=O)(=O)c1ccc2ccccc2c1	1.9
COc1ccc(S(=O)(=O)N(C)CC(=O)Nc2cccc(C(C)=O)c2)cc1	i
OC(c1ccccc1)c1nc2ccccc2s1 (stereo unspecified)	i
CCC1(C)CC(=O)N(c2ccc(C(=O)O)c(O)c2)C1=O (stereo unspecified)	i
COc1ccc(-n2ncc3c(=O)n(CC(=O)OCc4ccccc4)cnc32)cc1	0.2
COc1ccc(CC(=O)Nc2nnc(SCc3ccccc3)s2)cc1S(=O)(=O)N1CCOCC1	0.2
Cc1cc(C)n2nc(SCC(=O)Nc3c(C)nn(-c4ccccc4)c3C)nc2n1	1.0
CC(=O)c1cccc(NC(=O)Nc2c(C)nn(C)c2C)c1	1.6
c1coc(Cn2nnnc2CN2CCN(C3CCCC3)CC2)c1	0.6
O=C(CN1CCCCC1)Nc1ccc(Br)cc1C(=O)c1ccccc1Cl	1.6
COc1cccc(NC(=O)Cc2c(C(=O)O)[nH]c3ccccc23)c1	i
C/C(CC1CC(COCC(C)C)OC1=O)=N\Nc1nc(-c2ccccc2)cs1 (stereo unspecified)	i
CC1=C(C#N)C(Nc2ccc(C)cn2)(C(F)(F)F)C(=O)N1 (stereo unspecified)	i
CCOC(=O)c1cn2nc(OP(=S)(OCC)OCC)cc2nc1C	0.6
COc1ccc(CCNC(=O)C2CCC(CNc3c(N4CCCC4)c(=O)c3=O)CC2)cc1OC (stereo unspecified)	0.4
CCOC(=O)c1c(C)[nH]c(C(=O)OCC(=O)N(C)C2CCS(=O)(=O)C2)c1C (stereo unspecified)	0.3
CCOc1cccc(OCCCCn2ccnc2)c1	i
CC(=O)c1cccc(NC2=NCC(C)S2)c1 (stereo unspecified)	i
CCC1C(=O)N=C(SCC(=O)Nc2ccc(C(=O)OC)cc2)NC1=O (stereo unspecified)	i
CN1C(=O)c2ccc(C(=O)NCc3ccccc3)cc2C1=O	i
CN(C)CCCn1c(SCC(=O)Nc2sc3c(c2C#N)CCCC3)nnc1-c1ccncc1	i
CC12CC3(C)CC(C)(C1)CC(C(=O)NC(=S)N1CCOCC1)(C2)C3	i
Cc1ccc(NC(=O)N2CCc3ccccc3C2)cc1	i
Cc1ccc2nc(Cc3ccc(N)cc3)[nH]c2c1	2.1
c1ccc2c(c1)[nH]c1nc3nncn3nc12	2.9
Cc1cc(C(=O)CSc2nnc(Nc3ccccc3)s2)c(C)n1CC1CCCO1 (stereo unspecified)	1.2
Cc1ccc2nc(NC(=O)C3CCCN(S(=O)(=O)c4cccnc4)C3)sc2c1 (stereo unspecified)	0.7
Cc1ccc(CSCC(=O)N2CCOCC2)cc1	i
COCCn1c(=S)[nH]c2cc(C(=O)N3CCN(c4ccc(F)cc4)CC3)ccc2c1=O	i

# By substructure: those above containing fluorine (14)
mol	H5N1 CPE
CN1CCN(Cc2ccc(OC(F)(F)F)cc2)CC1	0.1
CSc1nnc(-c2ccc(F)cc2)o1	24.5
Fc1ccc2c(c1)nnn2C1CCN(Cc2nnnn2C2CCCCC2)CC1	i
CN(C(=O)CSc1nc(-c2ccc(F)cc2)cs1)C1CCS(=O)(=O)C1 (stereo unspecified)	i
O=C(OCCN1CCN(c2ncc(C(F)(F)F)cc2Cl)CC1)c1ccc(Cl)cc1	1.0
Cc1ccc(Cn2nnnc2CN2CCC(n3nnc4cc(C(F)(F)F)ccc43)CC2)cc1	i
CCCCn1c(O)c(C(CC)=NCc2ccc(F)cc2)c(=O)[nH]c1=O	1.0
CC(C)Cn1c2c(c(O)c(C(=O)Nc3ccc(F)cc3)c1=O)CCCC2	1.6
Cc1onc(-c2ccccc2Cl)c1C(=O)Nc1nnc(-c2ccc(F)cc2)s1	0.7
O=C(NCc1ccc2c(c1)OCO2)c1cc(S(=O)(=O)N2CCCCC2)ccc1F	1.4
FC(F)(F)c1nc2ccccc2n2c(-c3c(Cl)cccc3Cl)nnc12	i
O=C(NC1CCCCC1)C(c1ccc(F)cc1)N(C(=O)c1cccs1)c1ccc2c(c1)OCO2 (stereo unspecified)	3.1
CC1=C(C#N)C(Nc2ccc(C)cn2)(C(F)(F)F)C(=O)N1 (stereo unspecified)	i
COCCn1c(=S)[nH]c2cc(C(=O)N3CCN(c4ccc(F)cc4)CC3)ccc2c1=O	i
